Vif TR-FRET = HIV-1 Vif–A3G interaction blockers – biochemical, TR-FRET, GST-Vif 1-94, biotin-A3G peptide, dose response retest, primary screen (AID 1117319); TR-FRET GST-Vif / biotin-A3G peptide binding; higher % means a stronger effect; test concentration not given here; strong numbers were not always called active; inhibition, %, or IC50 in µM where a hit was titrated; 260,000 tested, 0.57% active;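 active = above the screen mean plus three standard deviations and confirmed in dose response; inconclusive = results disagree or hit not tested in dose response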;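 also: Vif residues 1-94 fused to GST binding biotinylated APOBEC3G peptide 110-148; 0% = full assay without inhibitor and 100% = GST in place of GST-Vif; retest series ran down from 100 µM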
HNF4A DNA FP = change in binding of human HNF4 alpha to DNA; P41235; HNF4a-FITC DNA binding, fluorescence polarization, 1 h; activity change, % at 10 µM; 360,000 tested, 0.3% active; AID 1224865; in the data active = activity change above about 30%, passing the limit was not always enough;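 also: controls were the assay level and a saturating level of protein; the project sought stronger binding though the title names inhibitors; some compounds called inactive have numbers as strong as hits; positive values seem to mean higher polarization but the record does not say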
Target sequence (P41235 whole entry, looked up): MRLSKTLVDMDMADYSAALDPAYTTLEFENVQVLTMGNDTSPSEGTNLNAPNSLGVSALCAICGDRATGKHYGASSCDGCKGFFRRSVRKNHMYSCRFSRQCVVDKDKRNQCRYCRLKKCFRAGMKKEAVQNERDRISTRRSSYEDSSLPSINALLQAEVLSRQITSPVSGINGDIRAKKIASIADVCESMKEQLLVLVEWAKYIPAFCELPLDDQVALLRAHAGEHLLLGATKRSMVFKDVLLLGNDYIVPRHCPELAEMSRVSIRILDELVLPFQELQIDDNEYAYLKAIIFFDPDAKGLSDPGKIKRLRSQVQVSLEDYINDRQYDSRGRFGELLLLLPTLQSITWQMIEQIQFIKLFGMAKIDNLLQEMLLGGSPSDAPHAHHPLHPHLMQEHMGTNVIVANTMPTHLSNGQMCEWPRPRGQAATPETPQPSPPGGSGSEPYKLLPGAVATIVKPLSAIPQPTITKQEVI
MLL AF4-AF9 inh = blocks AF4 peptide binding to human AF9 | AID 651704 | AlphaScreen, biotin-AF4 peptide binding to FLAG-AF9 | inhibition, % at 10 µM | P42568 | 350,000 tested, 0.47% active;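 active = every replicate reaching a set inhibition limit, whatever the replicate mean, cut at about 25% in these data; inconclusive = mean inhibition reaches that limit but some replicates miss it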;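 also: 0% = plate neutral control median and 100% = total signal loss; the record names both 10 and 1 µM as test concentration; the first replicate is given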
Target sequence (P42568 whole entry, looked up): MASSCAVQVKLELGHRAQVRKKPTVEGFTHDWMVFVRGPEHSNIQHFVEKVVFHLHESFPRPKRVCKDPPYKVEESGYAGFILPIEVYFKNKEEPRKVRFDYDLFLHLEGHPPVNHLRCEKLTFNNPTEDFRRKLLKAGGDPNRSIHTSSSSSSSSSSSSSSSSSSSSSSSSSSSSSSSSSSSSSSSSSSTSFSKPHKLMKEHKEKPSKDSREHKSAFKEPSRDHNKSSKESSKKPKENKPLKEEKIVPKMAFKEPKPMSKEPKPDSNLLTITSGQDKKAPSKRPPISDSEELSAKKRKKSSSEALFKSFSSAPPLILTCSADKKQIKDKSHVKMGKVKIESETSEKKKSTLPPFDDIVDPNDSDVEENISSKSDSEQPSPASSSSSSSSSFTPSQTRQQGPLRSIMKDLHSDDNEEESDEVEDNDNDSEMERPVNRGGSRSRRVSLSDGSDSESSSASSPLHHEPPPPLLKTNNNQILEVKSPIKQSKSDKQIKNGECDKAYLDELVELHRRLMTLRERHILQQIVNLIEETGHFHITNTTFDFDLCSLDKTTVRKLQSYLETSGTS
RanGTP-Impb inh = inhibitors of RanGTP-importin-beta interaction, primary screen, biochemical, FRET, CFP-Ran, YFP-importin-beta, homogeneous; 300,000 tested, 1.1% active; cell-free CFP-Ran/YFP-importin-beta FRET ratio; inhibition, % (test concentration not listed);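 active = most replicates above 15%; inconclusive = exactly half above 15%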;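 also: 0% = DMSO wells and 100% = Ran loaded with GDP instead of GTP; wells of about 40 µL received 100 nL stock; the first replicate is given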
FGF22 binding = FGF22 (human) thermal shift binding. Q9HCT0. recombinant FGF22 thermal shift, SYPRO orange fluorescence; percent of sucrose octasulfate shift, DMSO zero. calls only at 9.99 µM. 340,000 tested, 1.5% active;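 active = melting point raised past a set limit in the mean and every replicate; inconclusive = no clear call; three in four hits are not shown here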
Ecoli growth = blocks Escherichia coli growth. OD600, 23 h; stronger effect = lower value. OD600 absorbance (concentration not given with the values). 330,000 tested, 0.21% active;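 active = OD600 absorbance below the run mean of sample wells minus 3.6 SD, in any replicate, cut at about 0.56 in these data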;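 also: stock transfer was 300 nL into about 60 µL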
UCH37 inh = blocks the human deubiquitinase UCH37. purified proteasome/UCH37, Ub-AMC cleavage fluorescence. inhibition, % (test concentration not listed). 330,000 tested, 0.33% active;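 active = mean of two replicates above 20%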;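 also: 0% = compound-free wells with enzyme and 100% = wells lacking proteasome; stock transfer was 100 nL into about 20 µL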
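Signal – fluorescence, ex 355 nm, em 460 nm · System – Proteasome-bound UCH37 · Input – 0.15 nM proteasome as dispensed · Timing – 30 min preincubation with enzyme, 25 min cleavage at room temperature · Read-out basis – percent inhibition of cleavage signal versus uninhibited and no-proteasome wells · Medium – Tris-HCl pH 7.4 with ATP-MgCl2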
The depositor's hits bear a star; i = inactive; ? = inconclusive; . = not tested or not shown. These rows are one share of the data; the hit share may differ from the screen's.

SMILES	Vif TR-FRET	HNF4A DNA FP	MLL AF4-AF9 inh	RanGTP-Impb inh	FGF22 binding	Ecoli growth	UCH37 inh
Cc1ccc(-c2ccnc3cc(C)nn23)cc1	-12%	2.4	-0.6	1.9	i	0.66	-11
COc1ccc(NC(=O)N2CCCC(C(=O)Nc3cccc(C)c3C)C2)cc1 (stereo unspecified)	-10%	0.8	-3.6	5.9	i	0.72	3.6
COC(=O)c1ccc(C23CC4(C2)[C@H](CN(C)[C@@H]4c2ccccc2)C3c2ccc(Cl)nc2)cc1 (stereo partly specified)	.	-0.9	5.2	0.6	i	.	1.0
CC(C)C(NC(=O)c1c(F)cccc1F)C(=O)N1CCN(c2ncccn2)CC1 (stereo unspecified)	.	1.7	0.3	.	i	0.67	-2.4
Cc1ccc(NC(=O)CN(C)C(=O)c2cc(-c3ccccc3)nn2-c2ccccc2)cc1	23%	1.1	-2.2	.	i	0.74	3.4
N#CCCN(C(=O)COC(=O)c1ccc2c(c1)NC(=O)CS2)c1ccc2c(c1)OCCO2	2%	-0.7	.	0.9	.	0.74	2.5
Cc1cc(C)cc(NC(=O)Oc2ccccc2N2CCCCC2)c1	-14%	1.1	-2.0	?	i	0.66	1.5
CCN1CCC(NC(=O)Nc2cc(Cl)ccc2OC)CC1	2%	-2.6	-2.6	8.6	i	0.71	5.5
O=C(CNC(=O)c1ccco1)NCC(=O)OCc1cccc(Cl)c1	-1%	3.6	.	-2.3	.	0.68	-0.3
O=C(Nc1ccccn1)c1ccccc1	-4%	-0.6	-1.3	.	i	0.69	2.7
COc1ccccc1-c1cnc(C(O)c2ccc(Cl)cc2)[nH]1 (stereo unspecified)	.	2.9	9.4	.	i	.	.
CC(=O)c1cccc(NC(=O)CSCc2ccc(Br)cc2)c1	?	-0.8	.	3.2	.	0.67	2.3
CC(=O)COc1cc(C)cc2oc(=O)c(C)c(C)c12	3%	-0.6	.	-4.2	.	0.74	-28
COc1cccc(/C=N/n2nnnc2N)c1O	16%	0.4	-1.3	-3.2	i	.	.
COCCCNC(=O)c1cccc(OC)c1OC	-9%	-1.9	.	4.2	.	0.71	7.1
CC(=O)Nc1ccc(S(=O)(=O)NCCC(=O)OCC(=O)c2cccc(Br)c2)cc1	3%	1.3	-1.3	.	i	0.69	5.1
O=C(Cc1nnc(NC(=O)Nc2ccccc2)s1)Nc1ccccc1	6%	-0.7	0.4	-3.5	i	0.65	2.3
OCCNc1nc(Nc2ccc(Cl)c(Cl)c2)nc2ccccc12	.	0.1	-6.7	1.2	i	0.39*	-16
O=C(CN1CCN(c2ccc(F)cc2)CC1)NCc1ccc(Cl)cc1	.	0.9	3.4	-0.3	i	0.67	3.9
CCNC(=S)Nc1ccc(Cc2nc3ccccc3[nH]2)cc1	.	2.1	0.7	-3.0	i	0.62	-1.1
Cc1ccc2c(c1)c1c3n2CCN(C(=O)Cn2c(-c4ccccc4)noc2=O)C3CCC1 (stereo unspecified)	-1%	-1.8	.	-6.2	.	0.72	-5.2
Cc1cc(C)c2c(=O)[nH][nH]c2n1	0%	-2.0	-12	.	i	0.7	4.1
NC(=O)c1ccccc1OCC(=O)NC12CC3CC(CC(C3)C1)C2	3%	0.1	.	9.7	.	0.78	3.9
CC1C(=O)C(C)C(c2cc(Br)ccc2O)NC1c1cc(Br)ccc1O (stereo unspecified)	3%	2.4	9.8	.	i	.	.
O=C(O)CSCCC(=O)Nc1ccc(F)cc1	15%	1.3	.	-1.8	.	0.75	4.6
Cc1ccsc1CN(C)CC(=O)NCC(=O)Nc1ccc(F)c(F)c1F	.	-0.2	-0.7	.	i	0.69	5.9
CCCCc1ccc(-n2nnnc2SCC(=O)Nc2cc(OC)c([N+](=O)[O-])cc2C)cc1	11%	5.3	.	1.0	.	0.74	3.1
COc1ccc(N2C(=O)CC(SCC(=O)O)C2=O)cc1 (stereo unspecified)	13%	0.2	.	-2.2	.	0.72	-1.3
Cc1nc2ccccc2cc1C(=O)O	-6%	-0.2	.	-3.4	.	0.7	0.3
Cn1cccc1C(C(=O)NC1CCCCC1)N(C(=O)Cc1cccs1)C1CC1 (stereo unspecified)	0%	3.5	-21	4.9	i	0.65	2.8
O=S(=O)(Nc1ccc2c(c1)OCCO2)c1ccc2oc3ccccc3c2c1	-4%	-3.1	.	-2.7	.	0.68	0.8
CC(=O)Nc1cccc(NC(=O)c2csc(C)c2)c1	-7%	-3.4	2.1	-1.1	i	0.68	3.8
C=C(C)c1cccc(C(C)(C)NC(=O)N2CCN(c3ncccn3)CC2)c1	.	-9.7	.	2.8	.	0.64	17
O=[N+]([O-])c1cccc(S(=O)(=O)NCC2CCCO2)c1 (stereo unspecified)	-5%	-4.3	0.6	2.6	i	0.72	-1.0
CN1C(=O)C(C)(C)c2cc(S(=O)(=O)N3CCN(c4cccc(Cl)c4)CC3)ccc21	.	-4.1	0.3	?	i	0.74	3.0
COc1ccc(CNC(=O)CN(C(=O)Cn2nnc(-c3ccccc3F)n2)c2ccc(C)cc2)cc1	-4%	-2.4	-3.2	-4.9	i	0.7	0.0
COC(=O)c1ccc(/C=C(\C#N)C(=O)NC(C)c2ccccc2)cc1 (stereo unspecified)	10%	0.4	5.8	.	i	0.67	2.3
FC(F)(F)c1ccc(CN2C[C@@H]3C(c4ccccc4)C4(c5cccnc5)CC3(C4)[C@H]2c2ccccc2)cc1 (stereo partly specified)	.	-2.9	5.7	8.3	i	.	0.7
O=C(/C=C/NNC(=O)c1ccccc1)c1ccccc1	10%	-8.9	.	-2.6	.	0.76	0.7
O=c1c(-c2nnc(SCc3ccc(Cl)cc3Cl)o2)cccn1Cc1ccccc1	-12%	-3.7	.	?	.	0.72	i
Cc1noc(C)c1C(=O)Nc1nnc(CC(C)C)s1	?	0.0	?	4.1	i	0.68	5.8
CC1(C(=O)Nc2ccc3c(c2)OCCO3)CCC(=O)N1CCOc1ccccc1 (stereo unspecified)	.	0.6	-1.6	.	i	.	.
CC(C)OCCCNC(=O)CN1CCN(Cc2ccc(Cl)cc2)C1=O	7%	0.5	-0.9	-1.2	i	0.65	2.1
Cc1cc(/C=C(/C#N)C(=O)Nc2ccccc2)c(C)n1-c1cccnc1	-14%	1.3	.	-2.7	.	0.74	-0.9
CCOC(=O)C(/C=C(\C#N)C(=O)OCC)=C(/N)N1CCN(c2c(C)cccc2C)CC1	?	4.3	.	7.3	.	0.77	-3.0
COc1cc2c(cc1OC)CN(C1CC(=O)N(c3c(C)cccc3C)C1=O)CC2 (stereo unspecified)	2%	5.5	4.7	2.9	i	0.71	-0.3
CCCN1CCN(C(=O)c2cn(CC(C)C)c(=O)c3cc(OC)c(OC)cc23)CC1	31%	1.9	.	-22	.	0.69	3.9
CCOC(=O)COc1coc(CN2CCN(c3cccc(Cl)c3)CC2)cc1=O	.	0.9	-4.0	3.0	i	0.69	0.2
O=[N+]([O-])c1ccc(C(O)CN=Cc2ccc(O)cc2O)cc1 (stereo unspecified)	-2%	4.1	0.4	-2.8	.	0.67	7.7
CCNC(=O)c1c(NC(=O)C2COc3ccccc3O2)sc2c1CCCC2 (stereo unspecified)	1%	1.6	.	-2.3	.	0.81	2.2
Cc1cccc(NC(=O)C(C)Oc2ccccc2C)n1 (stereo unspecified)	16%	-3.8	.	9.2	.	0.69	4.0
Cc1ccccc1NC(=S)NC(C)CCc1ccccc1 (stereo unspecified)	16%	-4.4	.	1.3	.	0.63	3.1
Cc1cccc(N(C(=O)c2cnc3n(c2=O)CCS3)C2CCCCC2)c1	.	-1.3	-3.0	?	i	0.65	2.7
CCOC(=O)C1CCN(Cc2cccc(Oc3ccc(Cl)cc3)c2)CC1	-2%	0.0	2.9	-4.0	i	0.62	4.5
COc1cc(O)c(CCO)c2c1C(=O)C[C@@H](C)O2	2%	2.4	-3.1	2.1	i	0.73	-3.6
O=C1NC[C@@H](CCCCN2C[C@H](Cc3ccccc3)N(CCc3ccc(O)cc3)C(=O)C2=O)N(CC2CCCCC2)C1=O	.	0.2	1.8	.	i	.	.
Cc1nnc(NN)n(N)c1=O	33%	-3.2	-14	2.9	i	0.7	4.5
CC1(C(=O)O)CCCN(C(=O)C2(c3ccc(Cl)cc3)CCCC2)C1 (stereo unspecified)	.	4.2	0.2	.	i	.	.
O=C(COc1ncnc2ccccc12)c1ccc2c(c1)OCCO2	22%	2.1	.	?	.	0.68	-1.8
Cc1cc2c(=O)oc(-c3ccc(F)cc3)nc2s1	2%	-4.0	0.2	-1.4	i	0.69	-4.0

Reprinted at random: three compounds from above.
SMILES	Vif TR-FRET	HNF4A DNA FP	MLL AF4-AF9 inh	RanGTP-Impb inh	FGF22 binding	Ecoli growth	UCH37 inh
CCNC(=O)c1c(NC(=O)C2COc3ccccc3O2)sc2c1CCCC2 (stereo unspecified)	1%	1.6	.	-2.3	.	0.81	2.2
CCOC(=O)C1CCN(Cc2cccc(Oc3ccc(Cl)cc3)c2)CC1	-2%	0.0	2.9	-4.0	i	0.62	4.5
Cc1nnc(NN)n(N)c1=O	33%	-3.2	-14	2.9	i	0.7	4.5

Next section
SMILES	Vif TR-FRET	HNF4A DNA FP	MLL AF4-AF9 inh	RanGTP-Impb inh	FGF22 binding	Ecoli growth	UCH37 inh
O=C(COC(=O)c1ccccc1O)Nc1ccc(N2CCOCC2)cc1	-3%	-0.1	-0.2	.	i	0.7	0.5
CC1CN(CCc2ccccc2)c2nc3c(c(=O)n(C)c(=O)n3C)n2C1 (stereo unspecified)	.	-2.0	-2.2	3.3	i	0.67	6.1
CC(=O)Nc1ccc(S(=O)(=O)N2CCN(c3cc4c(cc3[N+](=O)[O-])n(C)c(=O)n4C)CC2)cc1	-2%	2.8	.	1.2	.	0.67	7.2
COc1cc(NC(=O)CCC(=O)O)nc(OC)n1	3%	0.7	.	-1.2	.	0.74	3.9
CCOC(=O)C(C)Oc1cccc2c(=O)n(CC(=O)Nc3cccc(OC)c3)ccc12 (stereo unspecified)	17%	-1.8	-9.2	7.2	i	0.75	0.5
CCN(Cc1ccccc1)c1ccc(N=Nc2nn(C)c(C)c2[N+](=O)[O-])cc1	.	3.2	?	-11	i	0.72	1.0
COc1ccc(Cl)cc1NC(=S)NNC(=O)C1(C)CC1(Cl)Cl (stereo unspecified)	26%	-7.5	-1.0	1.1	i	0.65	0.9
COc1ccc(N2CC(C(=O)Nc3nc(-c4ccccc4)c(C(C)=O)s3)CC2=O)c(OC)c1 (stereo unspecified)	-4%	0.5	-7.9	3.0	i	0.63	6.2
CN1CCN(C(=O)c2ccccc2NC(=O)c2cccc(Cl)c2)CC1	.	2.9	-1.3	1.1	i	0.68	4.0
O=C(NCC(c1ccco1)N1CCCC1)c1cc(=O)[nH]c2ccccc12 (stereo unspecified)	.	-0.7	0.1	.	i	0.65	-28
COc1ccc(/C(N)=N/OC(=O)c2cccc([N+](=O)[O-])c2)cc1	7%	1.5	.	2.1	.	.	1.5
CCN(CC)CCNC(=O)c1ccc(CS(=O)(=O)c2ccccc2C)o1	-2%	-0.8	-14	7.4	i	0.68	3.3

In the list so far, these have an NH in an aromatic ring:
SMILES	Vif TR-FRET	HNF4A DNA FP	MLL AF4-AF9 inh	RanGTP-Impb inh	FGF22 binding	Ecoli growth	UCH37 inh
COc1ccccc1-c1cnc(C(O)c2ccc(Cl)cc2)[nH]1 (stereo unspecified)	.	2.9	9.4	.	i	.	.
CCNC(=S)Nc1ccc(Cc2nc3ccccc3[nH]2)cc1	.	2.1	0.7	-3.0	i	0.62	-1.1
Cc1cc(C)c2c(=O)[nH][nH]c2n1	0%	-2.0	-12	.	i	0.7	4.1
O=C(NCC(c1ccco1)N1CCCC1)c1cc(=O)[nH]c2ccccc12 (stereo unspecified)	.	-0.7	0.1	.	i	0.65	-28
